Assay outcomes from PubChem BioAssay.
YopH PTP inh = YopH (Yersinia) phosphatase inhibition. fluorescence Ex485/Em525. inhibition, %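 (about 10 µM by stock and volumes)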. 0.16% of 140,000 active. AID 898;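 active means inhibition of 50% or more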;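 further: controls were vehicle for no effect and minimum signal wells for full effect; inactives centre near -20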
RecA intein inh = Mtb RecA intein splicing inhibition. cell-free RecA intein splicing, fluorescence. inhibition, %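 (about 9 µM by stock and volumes)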. 0.75% of 290,000 active. AID 2221; in the data active means inhibition above about 30%; inconclusive means no clear call, values can overlap the other calls;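 further: 0% = vehicle wells and 100% = reference inhibitor control wells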
Target sequence (P9WHJ3 whole entry, looked up): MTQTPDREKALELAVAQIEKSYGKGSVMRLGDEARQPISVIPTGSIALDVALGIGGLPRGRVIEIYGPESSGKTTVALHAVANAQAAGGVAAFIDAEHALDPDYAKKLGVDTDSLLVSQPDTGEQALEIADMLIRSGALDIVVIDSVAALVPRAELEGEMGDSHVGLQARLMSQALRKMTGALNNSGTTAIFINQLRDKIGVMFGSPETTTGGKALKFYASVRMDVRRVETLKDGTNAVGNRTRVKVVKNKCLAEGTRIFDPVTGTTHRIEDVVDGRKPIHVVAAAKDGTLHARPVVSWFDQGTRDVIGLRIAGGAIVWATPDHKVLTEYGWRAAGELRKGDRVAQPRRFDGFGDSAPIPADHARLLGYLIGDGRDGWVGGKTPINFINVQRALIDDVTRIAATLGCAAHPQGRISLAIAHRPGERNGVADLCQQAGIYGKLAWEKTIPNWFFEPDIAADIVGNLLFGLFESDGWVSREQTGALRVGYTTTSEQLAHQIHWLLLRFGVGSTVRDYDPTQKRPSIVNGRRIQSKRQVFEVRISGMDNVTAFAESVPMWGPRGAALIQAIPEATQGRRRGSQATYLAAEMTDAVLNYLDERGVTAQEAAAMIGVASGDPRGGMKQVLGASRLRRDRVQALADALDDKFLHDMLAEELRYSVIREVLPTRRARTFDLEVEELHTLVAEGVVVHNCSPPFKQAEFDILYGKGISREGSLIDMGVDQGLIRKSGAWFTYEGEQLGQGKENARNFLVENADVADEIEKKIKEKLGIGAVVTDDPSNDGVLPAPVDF
Arbovirus inh = antivirals against arbovirus infection; arbovirus infection cell-based antiviral screen; 0.37% of 200,000 active; inhibition, % at 10 µM;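 active means inhibition from about 30%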;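 further: bluetongue infection of BSR cells; cell survival read as ATP light after 72 h; 0% = infected wells without compound and 100% = uninfected wells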
Mtb H37Rv = M. tuberculosis H37Rv growth inhibitors, H37Rv strain (AID 1626) | M. tuberculosis H37Rv growth inhibition; higher % means a stronger effect | inhibition, % at 10 µM; hits with a dose series show IC50 in µM | 0.95% of 220,000 active;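 active means confirmed in a dose series; inconclusive means inhibition above 80% but not taken into the dose series; inactive means below 80% or under 30% at every dose of the series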;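 further: bacteria incubated seven days before Alamar blue readout; 0% = bacteria only wells and 100% = bacteria with antibiotic wells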
Mtb betalactam = beta-lactam sensitization of Mtb H37Rv. 0.27% of 330,000 active. AID 434955. inhibition, % at 25 µM. M. tuberculosis H37Rv growth with meropenem, percent inhibition; hits of this screen are not shown here;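 active means about 74% or more and at least 40 points above the plate without the antibiotic, then above 30% in a dose series; inconclusive means first-round hits that could not be retested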;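 further: growth measured after seven days incubation then overnight dye step; 0% = bacteria only wells and 100% = bacteria with antibiotic; twin plates without the antibiotic show which effects depend on it; some results filed as inactive read as strong as hits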
Arbovirus inh repeat = further read-out of Arbovirus inh, marked with its call; inhibition, %; measured here: 10K subset replicate screen; many hits read low in the repeat;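 first of two repeat runs on a subset; 0% = infected and 100% = uninfected wells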
* hit, by the source's call; ? = inconclusive; / = no result given.

SMILES	YopH PTP inh	RecA intein inh	Arbovirus inh	Mtb H37Rv	Mtb betalactam	others
CCCCCNC(=O)c1ccc(NS(=O)(=O)c2ccc3[nH]c(=O)[nH]c3c2)cc1	/	-2.0	/	/	4
O=C(Nc1ccc(Oc2cccc(C(F)(F)F)c2)nc1)c1ccco1	/	-1.3	/	-1%	-4
Cc1nn2c3ccccc3nc2c2ccccc12	-2	4.1	-6	-5%	-5
CC(c1ccccc1)N1CCC(CNC(=S)Nc2cccc(Cl)c2)C1 (centres undefined)	/	2.3	-27	1%	1
CC1CCCN(C(=O)COC(=O)c2ccc3[nH]c4c(c3c2)CCCC4)C1 (centres undefined)	/	-4.3	/	/	1
Cc1c(C#N)c(N=CN(C)C)c(C(=O)c2ccc(Br)cc2)n1-c1ccc(Cl)cc1	-18	/	-7	2%	0
CC(=O)NCCc1nc2ccccc2n1CCc1ccccc1	/	1.8	-4	0%	/
O=c1[nH]c(Nc2ccccn2)cc2ccccc12	/	72*	/	1%	0
O=C1c2ccccc2C(=O)N1CCCc1nc(-c2cccnc2)no1	-18	-0.6	9	2%	-3
COc1cc2c(cc1OC)CN(C(=O)CCc1c[nH]c3ccccc13)[C@H](C(=O)O)C2	/	-1.1	/	/	5
O=C(C(O)c1ccccc1)N1N=C(c2ccccc2)CC1(O)C(F)(F)F (centres undefined)	/	-2.3	/	/	-6
CC(=O)N1N=C(c2ccc(NS(C)(=O)=O)cc2)CC1c1ccc2nccnc2c1 (centres undefined)	/	-0.4	2	-9%	-14
CS(=O)(=O)N(Cc1ccccc1)c1ccccc1C(=O)N1CCN(c2ccccc2)CC1	-9	/	-5	-2%	-8
NC(=NCCc1ccccc1)NS(=O)(=O)c1ccccc1F	/	1.7	/	/	-6
CCCCc1ccc(Nc2ncccc2C#N)cc1	-13	1.3	-12	8%	0

Entries shown so far that have a carbonyl joined to an NH by a bond outside any ring:
SMILES	YopH PTP inh	RecA intein inh	Arbovirus inh	Mtb H37Rv	Mtb betalactam	others
CCCCCNC(=O)c1ccc(NS(=O)(=O)c2ccc3[nH]c(=O)[nH]c3c2)cc1	/	-2.0	/	/	4
O=C(Nc1ccc(Oc2cccc(C(F)(F)F)c2)nc1)c1ccco1	/	-1.3	/	-1%	-4
CC(=O)NCCc1nc2ccccc2n1CCc1ccccc1	/	1.8	-4	0%	/

Later entries
SMILES	YopH PTP inh	RecA intein inh	Arbovirus inh	Mtb H37Rv	Mtb betalactam	others
Cc1ccsc1/C=N/n1c(-c2ccccc2)n[nH]c1=S	-1	-3.6	4	-5%	6
NNC(=O)CN1C(c2ccc(Br)cc2)=Nc2ccc(Br)cc2C1c1ccccc1 (centres undefined)	-3	11	-14	16%	8
Nc1nonc1C(=O)NCCNCc1ccccc1OCc1ccccc1F	-23	-0.1	1	-4%	-1
CCS(=O)(=O)C1=NSC2=NC(=O)/C(=C\c3ccc(OC(=O)c4ccco4)c(OC)c3)C(=N)N21	/	27	/	/	2
COc1ccc(OC)c(NC(=O)c2cccc(NC(=O)c3ccccc3C(=O)O)c2)c1	/	2.0	/	/	-4
CCCCCOC(=O)c1[nH]c2c(c1C)C(=O)CC(c1ccco1)C2 (centres undefined)	2	3.1	-1	0%	5	Arbovirus inh repeat=-14
O=C1CN(C(=O)c2cccs2)c2ccccc2N1	-27	-7.8	0	6%	2
COc1ccc(Nc2cc(NCCCO)c([N+](=O)[O-])c3nonc23)cc1	/	7.3	/	/	94
Cc1noc(C)c1COC(=O)[C@@H](NC(=O)c1ccccc1)C(C)C	/	0.4	4	-10%	-2
CCc1ccc2nc(N(CCN(C)C)C(=O)/C=C/c3cccs3)sc2c1	/	4.7	/	/	?
CCCCn1c(-c2ccc(F)c(F)c2)nc2cc3[nH]c(=O)c(C(C)C)nc3cc21	/	9.9	/	/	57
O=C(CSc1nnc(Cc2ccccc2)n1-c1cccc(Cl)c1)N1CCOCC1	-26	-3.1	0	2%	-5
CC1=CCC2C(=O)N(c3nc4ccccc4n3C)C(=O)C2C1 (centres undefined)	-22	-0.6	5	-3%	8
O=C(N/N=C/c1ccccn1)c1ccc(Br)cc1	-10	-10	-2	44%	87
CCOC(=O)c1c(C)[nH]c(C(=O)COc2ccc3c(c2)OCO3)c1C	-33	1.4	8	3%	-1	Arbovirus inh repeat=2

Three entries already listed, ordered by molecular weight, descending.
SMILES	YopH PTP inh	RecA intein inh	Arbovirus inh	Mtb H37Rv	Mtb betalactam	others
COc1ccc(OC)c(NC(=O)c2cccc(NC(=O)c3ccccc3C(=O)O)c2)c1	/	2.0	/	/	-4
Nc1nonc1C(=O)NCCNCc1ccccc1OCc1ccccc1F	-23	-0.1	1	-4%	-1
CC1=CCC2C(=O)N(c3nc4ccccc4n3C)C(=O)C2C1 (centres undefined)	-22	-0.6	5	-3%	8

The list goes on:
SMILES	YopH PTP inh	RecA intein inh	Arbovirus inh	Mtb H37Rv	Mtb betalactam	others
Cc1cc(C(=O)N2CCN(c3ccccc3)CC2)c(C)o1	-41	1.9	1	0%	-3
CSc1nccc(Oc2ccccc2Cl)n1	/	-2.2	/	/	2
CCOc1ccc(/C=C/C2=Cc3c(sc(NC(=O)CSc4n[nH]c(N)n4)c3C#N)C(C)(C)C2)cc1	-22	-2.9	3	-3%	99
CC(C)C(NC=C1C(=O)OC(C)(C)OC1=O)C(=O)O (centres undefined)	-31	0.3	4	-1%	-1
COc1ccc(CSCC(=O)Nc2ccccc2)cc1[N+](=O)[O-]	/	-12	/	/	4
CCCNC(C)C(=O)Nc1ccccc1C (centres undefined)	/	0.1	2	3%	-11
Cc1ccc(CNc2ccc(N3CCOCC3)cc2)s1	-14	-2.7	-19	2%	-6
CCCOc1ccc(N2C(=O)CC(NCc3ccc(S(N)(=O)=O)cc3)C2=O)cc1 (centres undefined)	/	0.8	-1	-8%	-4
Cc1nc(CCNC(=O)CC2C(=O)NCCN2CC(C)(C)C)nc2c1CCC2 (centres undefined)	/	-2.5	/	/	2
CC(C)(C)C(=O)N1CCN(C(c2ccccc2)c2ccccc2)CC1	/	13	/	/	2
Cn1c(-c2cc3ccc(OC(=O)C(C)(C)C)cc3oc2=O)nc2ccccc21	-9	-301	2	2%	10
CC(C)[C@H](NC(=O)c1ccco1)C(=O)OCC(=O)Nc1ccccc1OC(F)F	/	-0.3	3	2%	-3
CCn1cnc2c1c(=O)n(CC(=O)NCc1ccccc1)c(=O)n2Cc1ccccc1	/	-1.8	4	-5%	-7
CC(/C=N/NC(=O)c1cc(-c2cccn2C)n[nH]1)=C\c1ccccc1	/	4.3	/	39%	96
COc1cc(CNc2cccc(F)c2)cc(Br)c1O	-53	5.9	1	-1%	-8
CNc1nc(C)cc(C)c1S(=O)(=O)c1ccc(Cl)cc1	-7	-3.1	5	2%	10
COc1ccc(/C=C2/C(=O)N(c3nc4ccccc4s3)N=C2CSc2ccc(Cl)cc2)cc1	-4	-1.0	-16	3%	2
O=C(COc1ccc(Cl)cc1Br)N1CCN(S(=O)(=O)c2ccccc2)CC1	/	-1.5	/	/	-2
O=C(CN1CCN(C(=O)N2CCOCC2)CC1)Nc1ccc(Br)cc1	-31	/	9	1%	1
CCOC(=O)N1CCN(C(=O)CCc2ccc(S(=O)(=O)NCC(C)C)cc2)CC1	/	-0.1	/	/	0
COc1ccc(CN(Cc2nc3ccccc3c(=O)[nH]2)C(=O)NC2CCCCC2)cc1	-27	-0.2	-6	0%	-12
COc1ccc(CCN(C)C(=O)CSc2nnc(C3CC3)n2N)cc1OC	/	-1.5	/	/	-5
COCCNC(=O)c1ccc2c(c1)ncn2-c1ccc(C)c(Cl)c1	/	-1.6	/	/	8
CCN(CC)c1ccc(-c2n[nH]c(=S)n2-c2ccccc2)cc1	/	1.5	-17	-6%	0
COc1ccc(NC(=O)c2ccco2)cc1NC(=O)c1ccc(C)cc1	-29	-9.5	1	0%	6
CC(=O)N1c2ccc(S(=O)(=O)N3CCC(C(=O)NC4CCC(C)CC4)CC3)cc2CC1C (centres undefined)	/	0.3	/	/	2
CCOC(=O)NNC(=O)c1[nH]c2ccc(Br)cc2c1-c1ccccc1	/	21	/	/	14
FC(F)Sc1ccc(NC(=S)NCC2CCCCC2)cc1	-16	11	-36	?	88
Cc1ccc(CN(C(=O)CNC(=O)c2cccs2)C(C(=O)NCC2CCCO2)c2ccccc2)cc1 (centres undefined)	-32	2.1	-14	-5%	1
CCOc1ccc(NC(=O)CSC(N)=O)cc1	-27	-4.6	-4	-4%	-19
Cc1cc(C)n2c(Br)c(CN3CC4CC(C3)c3cccc(=O)n3C4)nc2n1 (centres undefined)	-12	-3.1	1	9%	4	Arbovirus inh repeat=2
CCOC(=O)c1cc(NC(=O)c2cccs2)ccc1N1CCOCC1	/	-2.6	6	7%	-3
Cc1ccc(C(=O)NC2CCCCCC2)cc1N1CCCC1=O	-16	-1.4	0	-1%	0
COC(=O)CSC(C)C(=O)Nc1nnc(C(C)C)s1 (centres undefined)	/	-1.3	4	2%	6
CCOC(=O)C1=C(CNCc2ccccc2Cl)NC(=O)NC1c1ccc2c(c1)OCO2 (centres undefined)	-15	8.3	0	4%	-18
Cc1ccc(C(=O)c2cncc(Br)c2)cc1	-37	0.8	8	-8%	1
COc1ccc(NC(=O)CSc2nnnn2C2CCCCC2)cc1	/	3.5	/	/	19
Cc1[nH]ncc1-c1nc2ccccc2[nH]1	/	-1.1	/	/	-1
COCCNC(=O)c1cc2c3ccccc3n(C)c2s1	-38	3.2	3	-13%	7
CCn1c(=O)cc(SCC(=O)N2CCN(c3ccccc3OC)CC2)c2ccccc21	0	-1.5	-13	-4%	40
COc1ccc2[nH]c(=O)c(CN(CC3CCCO3)C(=O)Nc3ccc(F)cc3)cc2c1 (centres undefined)	-1	-2.3	-22	6%	/
COC(=O)c1ccc(C23CC4(C2)[C@H](CN(Cc2ccc(C(F)(F)F)cc2)[C@@H]4c2ccccc2)C3c2ccccc2)cc1 (some centres undefined)	/	4.0	/	-1%	4
CCOC(=O)c1ccc(S(=O)(=O)N2CCN(C(C)=O)CC2)cc1	/	-0.7	2	5%	-2
CCC(=NCCC(c1ccccc1)c1ccccc1)c1c(O)n(C)c(=O)n(C)c1=O	-10	3.8	6	6%	2
O=C(Cn1nc(-c2ccccc2)ccc1=O)NCc1ccc2c(c1)OCO2	-38	-3.9	-1	-6%	-15

Reprinted at random: 7 entries already listed
SMILES	YopH PTP inh	RecA intein inh	Arbovirus inh	Mtb H37Rv	Mtb betalactam	others
Cc1ccc(C(=O)NC2CCCCCC2)cc1N1CCCC1=O	-16	-1.4	0	-1%	0
COc1ccc2[nH]c(=O)c(CN(CC3CCCO3)C(=O)Nc3ccc(F)cc3)cc2c1 (centres undefined)	-1	-2.3	-22	6%	/
COC(=O)CSC(C)C(=O)Nc1nnc(C(C)C)s1 (centres undefined)	/	-1.3	4	2%	6
COCCNC(=O)c1cc2c3ccccc3n(C)c2s1	-38	3.2	3	-13%	7
Cc1ccc(C(=O)c2cncc(Br)c2)cc1	-37	0.8	8	-8%	1
COC(=O)c1ccc(C23CC4(C2)[C@H](CN(Cc2ccc(C(F)(F)F)cc2)[C@@H]4c2ccccc2)C3c2ccccc2)cc1 (some centres undefined)	/	4.0	/	-1%	4
CCOC(=O)c1ccc(S(=O)(=O)N2CCN(C(C)=O)CC2)cc1	/	-0.7	2	5%	-2

A portion of the library; count on the stated rates, not on these rows.
